# PV pol inh: poliovirus RdRp elongation inhibitors, primary screen, biochemical, fluorescence polarization, total intensity; Genome polyprotein (Poliovirus type 1 (strain Mahoney)), P03300; poliovirus polymerase elongation; stronger effect = lower value; % elongation, % (compound at 16.7 µg/mL); 150,000 tested, 0.66% active; in the data active = % elongation below about 90%; note: some results filed as inactive read as strong as hits
# Target sequence (P03300 1749-2209 limits assumed): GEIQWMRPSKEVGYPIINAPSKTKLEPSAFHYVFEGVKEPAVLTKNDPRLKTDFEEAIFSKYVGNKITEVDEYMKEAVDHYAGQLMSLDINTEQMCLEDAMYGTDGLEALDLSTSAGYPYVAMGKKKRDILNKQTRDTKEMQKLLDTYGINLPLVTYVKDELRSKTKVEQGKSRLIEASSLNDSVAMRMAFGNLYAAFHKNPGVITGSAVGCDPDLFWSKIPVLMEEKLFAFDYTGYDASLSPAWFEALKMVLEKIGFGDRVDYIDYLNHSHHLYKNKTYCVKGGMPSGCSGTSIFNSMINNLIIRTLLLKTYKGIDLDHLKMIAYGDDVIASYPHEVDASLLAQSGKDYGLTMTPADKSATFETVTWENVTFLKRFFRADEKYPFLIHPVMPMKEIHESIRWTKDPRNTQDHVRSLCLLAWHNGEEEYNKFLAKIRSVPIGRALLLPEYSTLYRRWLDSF
# MenB inh: M. tuberculosis MenB inhibitors, primary screen, biochemical, absorbance. 100,000 tested, 0.43% active. MenB enzyme assay, absorbance read-out; some hits fall short of the stated cut. inhibition, %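 (about 12 µg/mL by stock and volumes)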. AID 540299, 2011;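 active = mean of two replicates above 30%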;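 note: 0% = no compound and 100% = wells with inactive enzyme; the first replicate is given; strong numbers were not always called active; inactives centre near -10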
# Target sequence (P9WNP5 whole entry, looked up): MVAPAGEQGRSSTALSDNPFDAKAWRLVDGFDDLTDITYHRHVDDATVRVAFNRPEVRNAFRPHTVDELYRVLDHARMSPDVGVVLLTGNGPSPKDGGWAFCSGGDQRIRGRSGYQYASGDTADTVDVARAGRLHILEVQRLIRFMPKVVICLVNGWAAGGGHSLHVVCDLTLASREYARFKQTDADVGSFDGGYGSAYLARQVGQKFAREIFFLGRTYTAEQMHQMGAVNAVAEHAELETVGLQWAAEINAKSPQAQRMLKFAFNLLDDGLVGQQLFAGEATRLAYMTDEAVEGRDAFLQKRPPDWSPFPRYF
# Mtb MbtI inh: MbtI salicylate synthase inhibitors, primary screen, biochemical, fluorescence intensity; P9WFX0; purified MbtI enzyme, fluorescence intensity read-out; inhibition, %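 (about 17 µg/mL by stock and volumes)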; 100,000 tested, 0.89% active;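 active = above 50% in both replicates, above 80% if mildly self-fluorescent; inactive = the rest, strongly fluorescent compounds included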;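 note: 0% = mean of negative and 100% = mean of positive controls; one replicate is shown; some compounds called inactive have numbers as strong as hits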
# PV pol inh intensity: also measured in PV pol inh; calls as there; % elongation; measured here: total intensity read-out; formula for this scale not given here;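 total fluorescence in place of polarization; lower means less elongation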
# * hit, by the source's call; · = no result given; & = joins results of further samples.
SMILES,PV pol inh,PV pol inh intensity,MenB inh,Mtb MbtI inh
CCOC(=O)c1sc(N=Nc2cc3c4c(c2O)CCCN4CCC3)c(C(=O)OCC)c1C,100,105,-23,-7
Cc1nnc(SCC(=O)N2N=CCC2c2ccccc2)s1 (stereo unspecified),100,102,3,-17
O=C(Cn1c(=O)oc2cc(S(=O)(=O)N3CCCC3)ccc21)N1CCCC1,104,106,-16,1
O=C(O)C1CSC(c2ccccc2Cl)N1C(=O)c1ccccc1F (stereo unspecified),100,98,-8,·
Nc1ccc(S(N)(=O)=O)cc1,103&102,97&103,-16&-2,2&-11
C=CCN1C(=O)c2ccc(C(=O)OCC(=O)c3cc(C)n(-c4cc(C)on4)c3C)cc2C1=O,106,104,2,-8
Cc1nc(=O)c(-c2ccccc2)c(C)n1CCCN1CCOCC1,105,103,-5,-16
CN(C)/C=C/c1cc(=S)c2ccccc2s1,107,102,-83,14
S=c1nc(NCCc2ccccc2Cl)c2ccccc2[nH]1,106,106,-24,3
c1ccc2oc(-c3ccc(-c4nc5ccccc5o4)cc3)nc2c1,104,101,-8,6
COCC(C)n1c(Sc2ncnc3sccc23)nc2ccccc2c1=O (stereo unspecified),113,121,-5,3
C=CCNC(=O)CN1C(=O)COc2ccccc21,100,111,-6,-6
CC(=O)[C@H]1CCC2C3CC=C4C[C@@H](O)CC[C@]4(C)C3CC[C@@]21C (stereo partly specified),102,100,-6,-10
c1ccc(N2CCN(CSc3nc4ccccc4s3)CC2)cc1,107,100,16,11
N/C(=N\O)c1ccncc1,102,102,-17,-8
CC(=O)N1c2ccccc2NC2=C(C(=O)CCC2)C1c1ccco1 (stereo unspecified),101,105,4,-2
CCS(=O)(=O)c1ccc(O)c(NC(=O)CSCC(=O)O)c1,102,96,-2,8
O=C(Cn1nc(-c2ccccc2)ccc1=O)NCCc1ccccc1,105,108,-14,8
Cc1cccc(-c2noc(CNC(=O)C34CC5CC(CC(C5)C3)C4)n2)c1,102,104,11,-4
O=c1cc(CSc2ncccn2)nc2sccn12,104,116,-14,8
Cc1sc2nc(SC(C)C#N)n(C(C)C)c(=O)c2c1C (stereo unspecified),107,95,-60,15
Cc1cccc(NC(=O)NC2CCCCC2)n1,100,100,-28,-5
O=C1CCCN2N=C(SCC(=O)NCc3ccco3)SC2=N1,103,101,-35,-9
O=c1c(C=NCc2cccnc2)c(C(F)(F)F)[nH]n1-c1nc2ccccc2s1,108,115,-11,·

# 2 entries drawn at random from the list so far:
SMILES,PV pol inh,PV pol inh intensity,MenB inh,Mtb MbtI inh
Cc1cccc(NC(=O)NC2CCCCC2)n1,100,100,-28,-5
c1ccc2oc(-c3ccc(-c4nc5ccccc5o4)cc3)nc2c1,104,101,-8,6

# Part of the list above, with values under each structure.
# Every second line gives: PV pol inh	PV pol inh intensity	MenB inh	Mtb MbtI inh
- CC(=O)[C@H]1CCC2C3CC=C4C[C@@H](O)CC[C@]4(C)C3CC[C@@]21C (stereo partly specified)
→ 102	100	-6	-10
- c1ccc(N2CCN(CSc3nc4ccccc4s3)CC2)cc1
→ 107	100	16	11
- N/C(=N\O)c1ccncc1
→ 102	102	-17	-8
- CC(=O)N1c2ccccc2NC2=C(C(=O)CCC2)C1c1ccco1 (stereo unspecified)
→ 101	105	4	-2
- CCS(=O)(=O)c1ccc(O)c(NC(=O)CSCC(=O)O)c1
→ 102	96	-2	8
- O=C(Cn1nc(-c2ccccc2)ccc1=O)NCCc1ccccc1
→ 105	108	-14	8
- Cc1cccc(-c2noc(CNC(=O)C34CC5CC(CC(C5)C3)C4)n2)c1
→ 102	104	11	-4

# Further entries.
SMILES,PV pol inh,PV pol inh intensity,MenB inh,Mtb MbtI inh
COC(=O)CNC(=O)Cn1c(=O)n(CCc2ccccc2)c(=O)c2ccccc21,100,102,5,16
Cc1cc2c3nonc3ccc2n1-c1ccccc1,99,103,-25,-14
O=C(NCCN1CCN=C1c1ccccc1)c1ccccc1,104,102,-8,·
CNC(=O)CCCn1nc(C)c2sc3ccccc3c2c1=O,101,105,11,28
CC(C)CCNC(=O)Cn1cnc2c(cnn2-c2ccc(S(N)(=O)=O)cc2)c1=O,92,95,-12,-2
Cc1cc2[nH]c(=O)c(=O)[nH]c2cc1S(=O)(=O)N1C(=O)CNc2ccccc21,101,101,-21,-69
CC(C)Oc1nc(N)c(C#N)c(-c2ccc3c(c2)OCO3)c1C#N,104,107,-3,-30
CCCCNC(=O)NC1C2CC3CC(C2)CC1C3 (stereo unspecified),102,101,-5,1
O=C(c1ccccc1)N1CCN(C2CCCC2)CC1,90,95,9,·
CCOc1ccc(-c2cc(C(=O)O)c3ccccc3n2)cc1,101,103,-2,117
Cc1ccc(C2=C(CC(=O)O)C(=O)CC2)cc1,106,99,-59,16
O=S(=O)(Nc1ccccc1Cl)c1ccc2[nH]c(=S)oc2c1,102,106,-40,20
O=C(CNCC1CCCCC1)Nc1cccc(F)c1,101,101,15,-4
CCN(CC(O)c1cccc(O)c1)C(=S)Nc1cccnc1 (stereo unspecified),103,99,-41,-6
Cc1sc2nc(CSCC(=O)c3cc(C)n(-c4ccc(Br)cc4)c3C)[nH]c(=O)c2c1C,118,120,3,0
CC(=O)N/N=C/c1ccccc1,99,102,-26,10
Cc1[nH]c(=S)[nH]c(=O)c1Oc1ccc(=O)[nH]n1,101,102,-12,3
Cc1ccc(-n2c(C)cc(C=C3C(=O)c4ccccc4C3=O)c2C)cc1,95,113,-4,4
Cc1ccc(S(=O)(=O)NC23CC4CC(C2)CC(C(=O)O)(C4)C3)cc1,103,110,-13,11
O=C(Nc1cccnc1)C(Cc1ccccc1)N1C(=O)C2C3C=CC(C3)C2C1=O (stereo unspecified),102,104,-14,-4
COc1ccc(OCCN2CCN(C(=O)c3c(C)nn(-c4ccc(F)cc4)c3C)CC2)cc1,102,106,-22,14
Cc1ccccc1C1=NC(c2ccc(F)cc2F)ON1 (stereo unspecified),103,108,·,-15
Cc1cc2ccccc2c(=O)n1CC(=O)NCC(=O)NC1CCCCC1,103,101,-17,18
Cc1cc(C)nc(SCC(=O)n2c(C)c(C)c3ccccc32)n1,100,101,7,2
CC1(C)CC2CC(C)(CN2C(=O)COc2ncnc3ccccc23)C1 (stereo unspecified),105,105,8,-3
CSc1c(C)c(C#N)c(=O)n(NC(=O)COc2ccc(C#N)cc2)c1C,108,117,-27,0
Cc1nn2c(=O)cc(COC(=O)C(Cc3ccccc3)NC(=O)c3ccccc3)nc2s1 (stereo unspecified),·,·,5,-5
CC(=O)N(CC(C)C)c1nnc(-c2cccnc2)s1,101,102,-51,29
Cc1ccccc1NCC1SC(=S)NC1=O (stereo unspecified),123,117,-19,0
CC1(C)Cc2c(c(N3CCOCC3)nc3sc4c(=O)[nH]cnc4c23)CS1,100,103,-5,-146
O=C(CCC1CCCC1)OCC(=O)c1ccc2c(c1)OCO2,·,·,4,1
COc1cc2nc[nH]c(=O)c2cc1OC,104,111,1,-1
COc1ccc(/C=c2\s/c(=C(/C#N)C(=O)Nc3cccc(C(F)(F)F)c3)n(Cc3ccco3)c2=O)c(OC)c1OC,135,155,-17,19
O=C(CCNc1ccccc1)n1c(=O)oc2ccccc21,103,99,-19,·
NC(=O)CCNS(=O)(=O)c1ccccc1,·,·,-7,-6
O=C1NC(c2cc3c(cc2Br)OCO3)Oc2ccccc21 (stereo unspecified),101,103,-25,-44
Cc1ccc2c(c1)C1CC(C)(O2)N(Cc2ccccc2)C(=O)N1 (stereo unspecified),98,100,-8,-13
CCc1cccc2c(/C=C3/C(=O)N(C)c4ccccc43)c[nH]c12,101,103,-61,1
CCSc1nnc(C2CCCN(Cc3cccnc3)C2)n1C(C)C (stereo unspecified),103,106,-29,-2
O=C(CCN1c2ccccc2Sc2ccccc21)OCc1nnc(-c2ccccc2)o1,101,102,-25,-1
NC(=S)CC(=O)NCc1ccccc1,90,90,3,65
CC1CN(C(=O)CCC(=O)NCc2ccco2)c2ccccc2O1 (stereo unspecified),104,107,-5,0
COc1ccc(NC(=O)CN(C)C(=O)C2CC(=O)N(c3cccc(C)c3C)C2)cc1 (stereo unspecified),110,103,8,10
CCn1c(SC)nnc1C1CCCN(Cc2ccccc2)C1 (stereo unspecified),102,104,-11,-2
O=C(CNc1ccccc1)N/N=C/c1ccccc1Cl,105,101,-16,-6
O=C1/C(=C/c2ccncc2)CCc2ccccc21,100,104,-4,-13
CCOC(=O)C1CCCN(CCc2ccccc2)C1 (stereo unspecified),101,104,8,-19
CCn1c(O)c(/C=C2\C=Nc3ccc(Br)cc32)c(=O)[nH]c1=O,100,101,-133,-6

# A portion from the list above:
SMILES,PV pol inh,PV pol inh intensity,MenB inh,Mtb MbtI inh
O=C1/C(=C/c2ccncc2)CCc2ccccc21,100,104,-4,-13
CCOC(=O)C1CCCN(CCc2ccccc2)C1 (stereo unspecified),101,104,8,-19
CCn1c(O)c(/C=C2\C=Nc3ccc(Br)cc32)c(=O)[nH]c1=O,100,101,-133,-6

# (more compounds)
SMILES,PV pol inh,PV pol inh intensity,MenB inh,Mtb MbtI inh
CC1=NN(C(=O)c2ccccc2Cl)C(O)(C2CCCCC2)C1 (stereo unspecified),100,102,0,-12
COC(=O)c1c(COC(=O)c2cc(S(=O)(=O)N(C)C)ccc2N2CCOCC2)nc2ccccc2c1C,97,104,-22,8
CCc1ccc(NC(=O)Cn2c(C(=O)OC)cc3oc4ccccc4c32)cc1,104,97,6,18
CN(C(=O)c1cccc(S(=O)(=O)N2CCCC2)c1)C1CCCCC1,101,107,·,-11
COCC(=O)N1CCN(c2cccc(Cl)c2)CC1,100,101,-17,-2
CN(C)c1cc[n+](Cc2ccccc2)cc1,101,103,1,27
COCCCNc1nc(CC(C)C)nc2c1nnn2Cc1ccccc1,107,105,-20,-2
Cc1nc2nc[nH]n2c(=O)c1NC(=O)CC12CC3CC(CC(C3)C1)C2,104,102,14,-3
CCn1c(=N)n(CC(=O)c2ccc(C)cc2)c2ccccc21,101,101,-17,-43
O=CN1CCCNCC1,103,109,-4,-14
CCn1cc(C(=O)NC2CCCCC2)c(=O)c2ccc(C)nc21,106,100,-30,-4
O=C1CN(Cc2nc3scc(-c4cccs4)c3c(=O)[nH]2)CCN1,98,101,-7,9
CCOc1ccc2nc(SCc3c(F)c(F)c(F)c(F)c3F)[nH]c2c1,106,109,-18,-9
CCS(=O)(=O)c1ccc(-c2cccc(NC(=O)C3CC3)c2)nn1,102,109,-6,-1
CCOC(=O)N1CCC(NC(=O)c2cc3cc4ccc(C)cc4nc3o2)CC1,99,102,-14,-5
CC1CN(c2cc(=O)n(Cc3ccc(F)cc3)c(=O)[nH]2)CC(C)O1 (stereo unspecified),101,100,-14,-2
O=C(CC(c1ccccc1)c1cc(Br)ccc1O)NCCN1CCOCC1 (stereo unspecified),102,98,-69,-6
N#Cc1cc2c(nc1SCC(=O)N1CCCCC1)CCCC2,100,100,-6,-36
C=CCNc1nc(C(=O)OCC(=O)N2CC(C)OC(C)C2)cs1 (stereo unspecified),104,108,-31,-4
N#CCCS(=O)(=O)c1ccccc1,101,95,·,-2
COc1ccc(COc2ncnc3ccccc23)cc1F,102,106,-18,21
CON(C)c1nc(Cl)nc(N(C)C)n1,103,99,-84,-8
O=C1c2cccnc2C(=O)N1Cc1ccc(S(=O)(=O)N2CCCN(Cc3ccc(F)cc3)C2)cc1,105,102,-7,-7
O=C1CS/C(=N\N=C\c2ccccc2Cl)N1CC1CC1,103,106,-18,2
Cn1c(=O)oc2cc(Cl)c(C(=O)c3cc4c(cc3Cl)oc(=O)n4C)cc21,100,96,-5,5
COc1cc(C2c3c(oc4ccccc4c3=O)C(=O)N2Cc2ccccc2)ccc1O (stereo unspecified),100,96,7,13
COC(=O)[C@H](CC(N)=O)NC(C)=O,103,102,-11,9
Nc1nc(-c2ccc3c(c2)CCCC3)cs1,101,106,·,-8
CCN1CC=C2C(C#N)=C(N)C(C#N)(C#N)C(c3ccc(OC)c4ccccc34)C2C1 (stereo unspecified),105,123,-64,-4
CSc1sc(C(=O)NN)c2c1C1(CCC2)SCCS1,102,111,-13,2
O=C1NC(=O)C(Nc2ccccc2C(=O)O)S1 (stereo unspecified),102,105,-24,-214
O=C(CCC(=O)N1CCN(S(=O)(=O)c2ccccc2)CC1)c1cccs1,96,99,8,-24
COc1ccc(C)cc1S(=O)(=O)N(C)CC(=O)N1CCN(c2cccc(Cl)c2)CC1,100,100,-9,4
CCN(CC)C(=O)COc1ccc(/C(C)=N/NC(=O)c2ccccc2O)cc1,102,105,-29,0
CCOC(CCn1c(SCC(=O)NC2CCCCC2)nc2ccccc2c1=O)OCC,100,102,-16,-10
CC1(C)C(=O)C2(C(=O)Nc3cccc(C(F)(F)F)c3)CCC1C2 (stereo unspecified),103,102,-18,-3
CC(C)NC(=O)Cn1cc(C(=O)C(C)(C)C)c2ccccc21,103,106,-14,-4
Cc1ccccc1C1NC(=O)Cc2ccccc21 (stereo unspecified),100,103,-1,-24
CC(C)CC[n+]1[nH]ccc1N,108,107,-3,2
Cc1c(C(C)(C)C)sc(=N)n1C,103,102,-15,-5
CSc1nn(-c2ccccc2)c(NC(=O)COc2cccc3c2OC(C)(C)C3)c1C#N,100,101,-28,-1
CC(=O)Nc1nc(C)cs1,100,88,-26,·
Cc1cc(NC(=O)COCc2cc(-c3ccc(F)cc3)on2)n(-c2ccccc2)n1,104,101,-1,5
O=C(NNc1ncccc1-n1cccc1)c1ccco1,102,106,5,-2

# Screening results (PubChem BioAssay)
